Compound activity: PubChem, several laboratories
CAL PDZ FP – blocks peptide binding to the human CAL PDZ domain; Q9HD26; inhibition, % at 24.9 µM; 300,000 tested, 0.92% active; purified CAL PDZ, TMR-peptide fluorescence polarization, 1 h;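 active = mean inhibition of at least 30% with at least half of replicates also reaching 30%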;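 also: 0% = DMSO neutral control and 100% = excess unlabeled competitor peptide PRC23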
V-ATPase pHluor – regulators of yeast V-ATPase proton transport | S. cerevisiae, pHLuorin cytosolic pH fluorescence | response, % at 10 µM | 350,000 tested, 0.37% active; in the data active = response mostly above about 7.3%, no sharp cut-off; inactive = mostly below about 5.4%; also: actives read high; inactives centre near 0; some compounds called inactive have numbers as strong as hits; reference of the scale not given here
Keap1 Nrf2 FP – Keap1-Nrf2 (human) interaction inhibition; Q14145; Keap1 Kelch-Nrf2 peptide fluorescence polarization, 1536-well; inhibition, % at 9.4 µM; 340,000 tested, 0.15% active; in the data active = inhibition above about 12%;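 also: human Keap1 Kelch domain with fluorescein labeled Nrf2 9mer peptide probe; 0% = neutral control wells and 100% = peptide positive control; higher means more block of Keap1 binding to Nrf2 peptide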
Target sequence (Q14145 whole entry, looked up, the tested form may be a part): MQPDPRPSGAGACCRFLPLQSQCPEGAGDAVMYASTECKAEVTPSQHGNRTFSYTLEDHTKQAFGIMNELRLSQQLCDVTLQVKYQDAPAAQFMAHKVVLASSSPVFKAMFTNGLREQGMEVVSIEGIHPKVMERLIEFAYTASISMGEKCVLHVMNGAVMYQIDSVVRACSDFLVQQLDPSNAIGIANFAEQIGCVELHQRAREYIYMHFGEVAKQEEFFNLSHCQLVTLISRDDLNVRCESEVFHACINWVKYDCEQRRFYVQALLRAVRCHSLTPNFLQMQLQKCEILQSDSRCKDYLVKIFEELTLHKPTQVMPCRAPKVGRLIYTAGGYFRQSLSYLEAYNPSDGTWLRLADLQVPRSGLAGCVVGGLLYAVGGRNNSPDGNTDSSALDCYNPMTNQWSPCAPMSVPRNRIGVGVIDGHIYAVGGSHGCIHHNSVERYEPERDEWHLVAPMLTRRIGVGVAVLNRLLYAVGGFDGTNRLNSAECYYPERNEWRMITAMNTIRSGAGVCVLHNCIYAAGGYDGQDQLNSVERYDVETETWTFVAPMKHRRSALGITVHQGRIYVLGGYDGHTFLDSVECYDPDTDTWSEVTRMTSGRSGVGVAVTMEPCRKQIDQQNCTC
HTR5A ag – counter-screen for OPRM1-OPRD1 agonists: human HTR5A agonism; HTR5A agonist assay, luminescence, cell-based; 340,000 tested, 0.61% active; activation, % at 9.3 µM; P47898; in the data active = activation mostly above about 9.5%, no sharp cut-off; inactive = mostly below about 7.6%;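 also: 0% = cells with vehicle only and 100% = reference agonist; strong numbers were not always called active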
RTF Ca sens inh – cardiac RTF calcium desensitization; AID 493244; 340,000 tested, 0.12% active; inhibition, % at 7.15 µM; IANBD-labeled cardiac RTF, Ca2+ fluorescence;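 active = inhibition above the mean inhibition of all tested compounds plus 3 SD, cut at about 17% in these data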;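 also: assay run at fixed EC70 calcium of 1.6 mM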
cardiac RTF act – cardiac RTF calcium sensitization; IANBD-labeled TnC RTF fluorescence at EC20 calcium; 0% EC20 calcium, 100% full calcium; activation, % at 7.2 µM; 340,000 tested, 0.24% active; AID 493008;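 active = activation above the mean over all tested compounds plus 3 SD, cut at about 30% in these data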;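 also: rise in fluorescence read as greater calcium sensitivity of cardiac thin filaments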
C-LANA FP – inhibitors of KSHV LANA C-terminal domain DNA binding; 340,000 tested, 0.078% active; AID 504423; inhibition, % at 9 µM; MBP-C-LANA/FAM-LBS DNA binding, fluorescence polarization;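 active = highest replicate inhibition at or above 60% at 9 µM, even if other replicates fall short; inactive = all replicates below 60% inhibition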;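 also: 0% = neutral control wells and 100% = 4 µM acridine orange control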
HTR5A inv ctr – inverse agonist of human HTR5A in OPRM1-OPRD1 counter-screen. HTR5A cell line, luminescence, inverse agonism. inhibition, % at 9.3 µM. 340,000 tested, 0.083% active. AID 504634; in the data active = inhibition mostly above about 23%, no sharp cut-off; inactive = mostly below about 18%;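 also: 0% = cells with DMSO and 100% = no-cell wells with DMSO; some compounds called inactive have numbers as strong as hits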
Active calls of the source: *; & = joins results of further samples; ! = repeats disagree. Only part of the results is shown; rates above refer to the full screens.

#	structure	cardiac RTF act	HTR5A ag	RTF Ca sens inh	Keap1 Nrf2 FP	HTR5A inv ctr	V-ATPase pHluor	C-LANA FP	CAL PDZ FP
1	CC(=O)O[C@]1(C(C)=O)CC[C@H]2[C@@H]3C=C(C)C4=CC(=O)CC[C@]4(C)[C@H]3CC[C@@]21C	3	2	2	0	-6	-3	-1.1	-9
2	CC1(C)SC2C(NC(=O)C3(N)CCCCC3)C(=O)N2C1C(=O)O (stereo not given)	-5	-1	0	-4	4	2	1.6	-2
3	O=C1OCCN1/N=C/c1ccc([N+](=O)[O-])o1	5	-4	3	1	-29	-1	1.3	-6
4	NCCCC(N)(C(=O)O)C(F)F (stereo not given)	5	-2	6	-2	7	7	1.9	-1
5	CC(=O)OCC(=O)[C@@]1(O)CC[C@H]2[C@@H]3CCC4=CC(=O)C=C[C@]4(C)[C@H]3[C@@H](O)C[C@@]21C	1	-3	-4	3	11	1	0.3	-5
6	CCCc1nc(C)c2c(=O)[nH]c(-c3cc(S(=O)(=O)N4CCN(CC)CC4)ccc3OCC)nn12	9	8	6	5	-27	2	-0.6	-3
7	COCCOC(=O)C1=C(C)NC(C)=C(C(=O)OC(C)C)C1c1cccc([N+](=O)[O-])c1 (stereo not given)	6	4	12	-1	-16	-4	0.8	-2
8	C[C@H]1O[C@H]1P(=O)(O)O	-8	-1	11	-4	4	-3	0.6	2
9	OC(c1cc(C(F)(F)F)nc2c(C(F)(F)F)cccc12)C1CCCCN1 (stereo not given)	3	7	15	6	-25	-1	2.1	-5
10	O=C(O)[C@H](O)[C@@H](O)C(=O)O	0	-1	4	1	28	-2	1.3	-3
11	NCCS	-1	2	7	-15	-8	-3	0.3	-1
12	O=C(N[C@H](CO)[C@H](O)c1ccc([N+](=O)[O-])cc1)C(Cl)Cl	8	10	1	0	-13	1	1.4	-3

Some of the entries so far, with values under each structure:
Sequence of screens: cardiac RTF act	HTR5A ag	RTF Ca sens inh	Keap1 Nrf2 FP	HTR5A inv ctr	V-ATPase pHluor	C-LANA FP	CAL PDZ FP
[5] CC(=O)OCC(=O)[C@@]1(O)CC[C@H]2[C@@H]3CCC4=CC(=O)C=C[C@]4(C)[C@H]3[C@@H](O)C[C@@]21C
 : 1	-3	-4	3	11	1	0.3	-5
[11] NCCS
 : -1	2	7	-15	-8	-3	0.3	-1
[6] CCCc1nc(C)c2c(=O)[nH]c(-c3cc(S(=O)(=O)N4CCN(CC)CC4)ccc3OCC)nn12
 : 9	8	6	5	-27	2	-0.6	-3
[3] O=C1OCCN1/N=C/c1ccc([N+](=O)[O-])o1
 : 5	-4	3	1	-29	-1	1.3	-6

Following part
#	structure	cardiac RTF act	HTR5A ag	RTF Ca sens inh	Keap1 Nrf2 FP	HTR5A inv ctr	V-ATPase pHluor	C-LANA FP	CAL PDZ FP
13	O=C(CO)C(O)C(O)C(O)CO (stereo not given)	0	2	9	10	-7	-68	7.2	-2
14	C[C@]12CC[C@@H]3c4ccc(O)cc4CC[C@H]3[C@@H]1CCC2=O	3	5	1	-1	4	93*	0.9	-3
15	Cn1nnnc1SCC1=C(C(=O)O)N2C(=O)[C@@H](NC(=O)[C@H](O)c3ccccc3)[C@H]2SC1	3	7	6	-8	-4	0	27	0
16	CN1CCN(CCCN2c3ccccc3Sc3ccc(Cl)cc32)CC1	-2	3	2	3	-7	1	-1.8	-3
17	CCCCC[C@H](O)/C=C/[C@@H]1[C@@H](C/C=C\CCCC(=O)O)[C@@H](O)C[C@H]1O	-9	3	10	-1	-10	1	1.6	2
18	COc1cc(NS(=O)(=O)c2ccc(N)cc2)nc(OC)n1	1	0	-5	-1	-2	-2	-1.1	1
19	COc1ccccc1OC[C@H](O)CO	-2	3	4	-3	-9	4	-0.3	-2
20	CC(=O)[C@H]1CC[C@H]2[C@@H]3CCC4=CC(=O)CC[C@]4(C)[C@H]3CC[C@]12C	3&-1	4&-1	-23&-12	-4&-3	-5&-6	-1&-3	2.1&-1.2	-2&-2
21	Cc1c(N2C(=O)CSC2c2ccccc2)c(=O)n(-c2ccccc2)n1C (stereo not given)	-3	1	1	3	-14	0	2.6	0
22	O=c1[nH]c(=O)n(C2C[C@H](O)[C@@H](CO)O2)cc1C(F)(F)F (stereo not given in full)	2	0	-16	-3	3	4	-3.6	-3
23	CC[C@H]1OC(=O)[C@H](C)[C@@H](O[C@H]2C[C@@](C)(OC)[C@@H](O)[C@H](C)O2)[C@H](C)[C@@H](O[C@@H]2O[C@H](C)C[C@H](N(C)C)[C@H]2O)[C@](C)(O)C[C@@H](C)C(=O)[C@H](C)[C@@H](O)[C@]1(C)O	-5	-3	6	5	11	-2	3.9	-6
24	Cc1ccc(O)c([C@H](CCN(C(C)C)C(C)C)c2ccccc2)c1	9&-8	-2&2	0&10	-1&-2	20&-55	-1&6	-0.3&0.4	1&-9

#	structure	cardiac RTF act	HTR5A ag	RTF Ca sens inh	Keap1 Nrf2 FP	HTR5A inv ctr	V-ATPase pHluor	C-LANA FP	CAL PDZ FP
25	CC(=O)O[C@]1(C(C)=O)CCC2C3C=C(C)C4=CC(=O)CC[C@]4(C)C3CC[C@@]21C (stereo not given in full)	-1	-1	-3	-7	5	4	-0.9	-2
26	Nc1ccc(S(N)(=O)=O)cc1	-3	1	7	-2	-10	-3	1.6	-3
27	Nc1c(Br)cc(Br)cc1CNC1CCC(O)CC1 (stereo not given)	3&2	-1&-1	-4&0	-7&-3	-9&4	7&0	0.0&0.2	-3&-1
28	Nc1[nH]c(=O)ncc1F	-2	-3	9	-5	-1	-1	-1.5	2
29	CC(=O)O[C@H]1C[C@@]2(C)[C@@H](C[C@@H](O)[C@H]3[C@@]4(C)CC[C@@H](O)[C@@H](C)C4CC[C@@]32C)/C1=C(\CCC=C(C)C)C(=O)O (stereo not given in full)	1	4	3	-1	-13	1	1.1	8
30	CC(C)NCC(O)COc1ccc(CC(N)=O)cc1 (stereo not given)	7	-3	3	-5	-10	-3	-0.4	-4
31	CC(=O)Oc1cc(C(C)C)c(OCCN(C)C)cc1C	6	0	5	-7	1	1	-0.4	0
32	COCCCC/C(=N\OCCN)c1ccc(C(F)(F)F)cc1	3&0&-5&3&2	2&-4&5&4&-1	20*!	-4&-4&-3&-1&-2	-9&-35&-16&-16&4	-1&7&-1&-2&5	-0.7&0.4&2.0&0.9&1.0	-2&-3&-5&-4&-1
33	CCN[C@H]1C[C@H](C)S(=O)(=O)c2sc(S(N)(=O)=O)cc21	2	1	-3	2	-18	-2	0.0	7

Full records, quoted from the list. Values in the order: cardiac RTF act, HTR5A ag, RTF Ca sens inh, Keap1 Nrf2 FP, HTR5A inv ctr, V-ATPase pHluor, C-LANA FP, CAL PDZ FP
`NCCS` is listed as -1, 2, 7, -15, -8, -3, 0.3, -1
`O=C(N[C@H](CO)[C@H](O)c1ccc([N+](=O)[O-])cc1)C(Cl)Cl` is listed as 8, 10, 1, 0, -13, 1, 1.4, -3
`COCCOC(=O)C1=C(C)NC(C)=C(C(=O)OC(C)C)C1c1cccc([N+](=O)[O-])c1` (stereo not given) is listed as 6, 4, 12, -1, -16, -4, 0.8, -2
`CC(C)NCC(O)COc1ccc(CC(N)=O)cc1` (stereo not given) is listed as 7, -3, 3, -5, -10, -3, -0.4, -4
`C[C@H]1O[C@H]1P(=O)(O)O` is listed as -8, -1, 11, -4, 4, -3, 0.6, 2
